# VCAM-1 down imaging = suppression of endothelial VCAM-1 upregulation – imaging, high-content imaging, pooled HUVEC, TNFa stimulus (AID 456) | 10,000 tested, 0.2% active | HUVEC TNFa-induced VCAM-1 surface expression, immunofluorescence imaging; numbers were filed only for top-ranked candidate wells | one-dose inhibition, % at 5 µM; IC50 in µM for titrated hits;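 active = top tenth filtered wells with inhibition above zero that passed visual or statistical confirmation; inactive = the rest, including hits rejected on review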;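 also: 0% = stimulated vehicle wells and 100% = unstimulated cells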
# FPR ligand = ligands of human FPR, also counter-screen for FPRL1 ligands | P21462 | FPR-expressing cells, fluorescent ligand binding, flow cytometry | inhibition, %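 (tested at 6.7 µM)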 | 24,000 tested, 0.74% active | AID 440;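 also: 0% = buffer wells and 100% = receptor blocker peptide wells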
# Target sequence (P21462 whole entry, looked up): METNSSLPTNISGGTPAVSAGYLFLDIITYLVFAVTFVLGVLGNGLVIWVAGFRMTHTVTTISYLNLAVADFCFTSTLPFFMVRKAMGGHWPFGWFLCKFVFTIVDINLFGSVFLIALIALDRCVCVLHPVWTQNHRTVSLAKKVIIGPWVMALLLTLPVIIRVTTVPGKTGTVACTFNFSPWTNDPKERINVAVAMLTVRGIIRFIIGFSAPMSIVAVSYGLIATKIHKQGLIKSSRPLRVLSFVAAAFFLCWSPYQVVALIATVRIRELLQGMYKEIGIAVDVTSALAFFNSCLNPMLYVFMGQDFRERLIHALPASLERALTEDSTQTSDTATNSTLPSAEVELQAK
# FPRL1 binder = binds the human formylpeptide receptor-like-1 FPRL1. P25090. FPRL1-expressing cells, fluorescent ligand binding inhibition, flow cytometry. inhibition, %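 (tested at 6.7 µM)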. 24,000 tested, 0.3% active. AID 441;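 also: 0% = buffer alone and 100% = receptor blocker peptide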
# Target sequence (P25090 whole entry, looked up): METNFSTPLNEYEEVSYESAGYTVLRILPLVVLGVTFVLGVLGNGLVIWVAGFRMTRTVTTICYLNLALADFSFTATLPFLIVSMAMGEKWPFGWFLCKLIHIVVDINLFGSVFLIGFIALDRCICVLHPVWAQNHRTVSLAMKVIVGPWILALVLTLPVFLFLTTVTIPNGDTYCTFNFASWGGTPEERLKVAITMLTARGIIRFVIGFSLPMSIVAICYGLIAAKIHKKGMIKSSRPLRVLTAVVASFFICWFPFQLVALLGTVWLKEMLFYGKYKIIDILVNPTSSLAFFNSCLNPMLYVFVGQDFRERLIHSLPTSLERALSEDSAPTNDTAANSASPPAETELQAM
# VCAM-1 inhibition = inhibitors of TNFa-induced VCAM-1 surface display, cell-based, plate reader, pooled HUVEC, TNFa stimulus (AID 454). HUVEC TNFa-induced VCAM-1 surface immunofluorescence, plate reader; numbers were filed only for top-ranked candidate wells. inhibition, % at 5 µM. 10,000 tested, 0.2% active;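 active = compound among top-ranked inhibitors of TNF-induced VCAM-1 adhesion protein staining, with the hit upheld by image or statistical review; inactive = the rest, including hits rejected on review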;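 also: 0% = TNFa with vehicle and 100% = cells without TNFa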
# VCAM-1 up imaging = enhancers of VCAM-1 display on endothelial cells, imaging, high-content imaging, pooled HUVEC, TNFa stimulus (AID 457); Pooled HUVEC, TNFa-induced VCAM-1 immunofluorescence imaging; hits of this screen are not shown here; calls only; 10,000 tested, 0.2% active;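 active = a top-ranked rise in VCAM-1 staining upheld on image or statistical review; inactive = the rest, including candidates rejected on review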;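 also: compounds tested at 5 µM in the well; cells exposed to compound for 24 hours before fixing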
# * hit, by the source's call; i = inactive; / = not tested or not shown.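 The calls were made as follows, unless noted: active = mean above 30%; inconclusive = self-fluorescent; inactive = the rest.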 An excerpt (hit frequency here may not be typical).
# Results follow in this order: VCAM-1 down imaging	VCAM-1 inhibition	FPRL1 binder	VCAM-1 up imaging	FPR ligand
COc1ccccc1NC(=O)CSc1nnc(Cn2c(=O)sc3ccccc32)n1C
→ /	/	5.1	/	-2.3
O=C(Cn1ccc2ccccc2c1=O)NCCC(=O)N1CCN(c2cccc(C(F)(F)F)c2)CC1
→ /	/	1.1	/	4.0
COc1ccc(S(=O)(=O)NC(CC(=O)NCc2ccccc2OC)c2ccco2)cc1 (stereo not drawn)
→ /	/	0.6	/	3.3
CC1(C(=O)NC2CCCCC2)CCC(=O)N1Cc1cccnc1 (stereo not drawn)
→ /	/	-5.6	/	-4.1
Cc1ccc(S(=O)(=O)NCCc2ccncc2)cc1
→ i	i	-2.3	i	-0.6
COc1ccc(C2C(C(N)=O)=C(C)Nc3nc(-c4ccccc4OC)nn32)cc1OC (stereo not drawn)
→ /	/	-1.6	/	-6.4
O=C(CCC1CCCCC1)Nc1c2c(nn1-c1ccc(F)cc1)CS(=O)(=O)C2
→ /	/	9.6	/	1.0
COC(=O)Nc1ccc(S(=O)(=O)N2CCCCCC2)cc1
→ i	i	-4.2	i	-5.3
CCN(CC)S(=O)(=O)N1CCC(C(=O)NCCN2CCOCC2)CC1
→ /	/	-0.6	/	-9.0
Cc1ccc(CCNC(=O)c2coc3nc4ccccc4nc23)cc1
→ /	/	-7.1	/	-2.8
Nn1c(SCC(=O)NC2CCCCC2)nnc1-c1ccc(Cl)cc1
→ i	i	0.3	i	7.3
CCCc1nnc(NC(=O)C(C)N2C(=O)C3C4C=CC(C4)C3C2=O)s1 (stereo not drawn)
→ /	/	-6.9	/	1.2
CCC(Oc1ccc2c(c1)C(=O)CC(C)(C)O2)C(=O)NCCN1CCCCCC1 (stereo not drawn)
→ /	/	-1.0	/	0.1
CCCN(CCC)CCNS(=O)(=O)c1ccc2c(c1)oc(=O)n2C
→ i	i	-5.1	i	-5.1
COc1cc(NC(=O)CN(c2cc(C)cc(C)c2)S(=O)(=O)c2c(C)noc2C)cc(OC)c1
→ i	i	-0.9	i	5.9
CCOC(=O)CN1CC23C=CC(O2)C(C(=O)Nc2ccc(C(C)=O)cc2)C3C1=O (stereo not drawn)
→ i	i	-1.2	i	-2.7
CSc1c(C#N)c(N)c(C#N)c2c1COC(C)(C)C2
→ i	i	-2.1	i	4.3
CCCCC(=O)NC(Nc1cc(C)ccn1)(C(=O)OCC)C(F)(F)F (stereo not drawn)
→ /	/	3.3	/	0.6
COC(=O)C(C)NC(=O)C12CC3CC(CC(C3)C1)C2 (stereo not drawn)
→ i	i	-6.6	i	-8.1
Cn1c(=O)c2cc(S(=O)(=O)NCCC(=O)NCCc3ccc(Cl)cc3)ccc2n(C)c1=O
→ /	/	-5.2	/	2.8
COc1ccc(CCn2c(NCCCN3CCOCC3)nc3c2c(=O)[nH]c(=O)n3C)cc1
→ i	i	1.0	i	1.6
COc1ccc(C)cc1S(=O)(=O)N1CCN(Cc2ccccc2)CC1
→ i	i	4.4	i	1.4
COC(=O)[C@@H](NC(=O)NCc1ccccc1Cl)C(C)C
→ i	i	3.4	i	-0.4
CC(C)N(Cc1nc(-c2ccc(Cl)cc2)no1)C(=O)CCCN1C(=O)c2ccccc2C1=O
→ /	/	-0.9	/	8.8
Cc1ccc(CNC(=O)CCCn2c(=O)c3ccccc3n(CC(=O)NC3CCCC3)c2=O)cc1
→ /	/	2.1	/	0.2
CN(C)/C=C1\N=C(c2ccc(Cl)cc2Cl)OC1=O
→ i	i	0.7	i	-4.9
Cc1c(C=NCCOCc2ccccc2)cnn1C
→ i	i	-6.7	i	-10.0
CCC(Sc1nc2cc3c(cc2c(=O)n1Cc1ccco1)OCO3)C(=O)Nc1ccccc1OC (stereo not drawn)
→ /	/	1.6	/	-4.9
O=C1CCNc2cc3ccccc3cc21
→ i	i	-6.7	i	1.6
CCNC(=O)N(C(=O)NCC)n1c(C)nnc1C
→ i	i	24.0	i	11.0
CC(C)C(NC(=O)OCc1ccccc1)C(=O)OCC(=O)NCc1ccco1 (stereo not drawn)
→ i	i	-0.9	i	-1.5
CC1CCCC(NC(=O)C2CCN(S(=O)(=O)N3CCC4(CC3)OCCO4)CC2)C1C (stereo not drawn)
→ /	/	7.2	/	-4.9
CCOC(=O)C1CCN(C(=O)CSc2cc(=O)n(CC)c3ccccc23)CC1
→ i	i	4.5	i	1.9
COc1ccc(S(=O)(=O)N2CCCN(CC(=O)C(C)(C)C)CC2)cc1
→ /	/	-3.9	/	3.7
CCOC(=O)c1ccc(NC(=O)NC(C)C2CCCO2)cc1 (stereo not drawn)
→ i	i	3.0	i	1.1
CC1CCN(C(=O)c2ccc(COc3ccccc3Cl)o2)CC1
→ /	/	-0.9	/	2.3
Cn1cc(C(=O)NCCN2CCN(c3cccc(Cl)c3)CC2)c2c3ccccc3n(C)c2c1=O
→ /	/	5.4	/	-0.8
COC(=O)c1ccc(NC(=O)CN2C(=O)CSC2=O)cc1
→ i	i	-6.8	i	-2.2
COC(=O)C1=C(N)N(c2ccc(F)cc2)C2=C(C(=O)CCC2)C1c1ccc2c(c1)OCO2 (stereo not drawn)
→ /	/	-2.9	/	-2.8
COc1cccc(NS(=O)(=O)c2ccc3c(c2)n(C)c(=O)c(=O)n3C)c1
→ /	/	1.5	/	4.5
CC(Oc1ccccc1)C(=O)NC1CC(C)(C)NC(C)(C)C1 (stereo not drawn)
→ i	i	3.5	i	-2.9
CCn1c(C(C#N)/C(=N\S(=O)(=O)c2cccs2)c2ccccc2)nc2ccccc21 (stereo not drawn)
→ i	i	1.6	i	17.5
O=C(O)c1ccc2c(c1)C(c1ccccc1)OC2=O (stereo not drawn)
→ /	/	9.9	/	11.1
CCN(CC)C(=O)c1sc2nc(-c3ccc(OC)cc3)cn2c1C
→ /	/	-3.6	/	-2.6
COc1ccc(CCNC(=O)CC2COc3ccccc3O2)cc1OC (stereo not drawn)
→ i	i	-1.4	i	-4.8
COCCCNC(=O)CSC1=Nc2ccccc2C2=NC(CC(=O)NCc3ccccc3)C(=O)N12 (stereo not drawn)
→ /	/	3.5	/	3.7
CCSc1nnc(-c2ccccc2NC(=O)CC)c(=O)[nH]1
→ /	/	2.7	/	9.4
COc1ccccc1S(=O)(=O)Cc1ccc(C(=O)N2CCN(c3ccc(C)cc3)C(C)C2)o1 (stereo not drawn)
→ i	i	-2.0	i	5.4
COCCn1c(=S)[nH]c2cc(C(=O)N3CCN(c4ccccc4OC)CC3)ccc2c1=O
→ /	/	-4.2	/	-0.2
O=c1cc(N2CCN(c3cccc(Cl)c3)CC2)[nH]c(=O)n1C1CCCCC1
→ /	/	4.4	/	0.6
Cc1cc2nc(-c3ccco3)cc(C(F)(F)F)n2n1
→ i	i	-4.0	i	-1.4
CCOC(=O)C1CCCN(C(=O)CNS(=O)(=O)c2ccc(Br)s2)C1 (stereo not drawn)
→ i	i	-2.4	i	5.6
O=C(CN1C(=O)CCS(=O)(=O)c2ccccc21)NCc1ccccc1
→ /	/	17.1	/	5.6
COc1ccccc1Nc1nc2ccccc2[nH]1
→ i	i	0.8	i	1.0
COCCn1c(SCC(=O)c2ccccc2)nc2c(c1=O)SC(C)C2 (stereo not drawn)
→ i	i	-1.6	i	4.8
CCOC(=O)N1CCN(c2c(NCCc3ccc(OCC)c(OCC)c3)c(=O)c2=O)CC1
→ /	/	8.4	/	4.8
CCOc1ccc(NC(=O)c2oc3ccccc3c2NC(=O)C2CC2)cc1
→ /	/	-4.3	/	-1.7
Cc1ccc(C)c(OCC(O)CN2C(C)CCCC2C)c1 (stereo not drawn)
→ i	i	-8.3	i	2.0
CCC(=O)N1CCc2cc(S(=O)(=O)CCC(=O)NCc3cccs3)ccc21
→ /	/	-2.3	/	0.5
COc1cccc(C2/C(=C(\O)c3ccc4c(c3)OCCO4)C(=O)C(=O)N2CCCN(C)C)c1OC (stereo not drawn)
→ /	/	2.7	/	2.9

# Arranged by the number under FPRL1 binder (falling): 3 from the list above.
smiles | FPRL1 binder
O=C(CN1C(=O)CCS(=O)(=O)c2ccccc21)NCc1ccccc1 | 17.1
CCOC(=O)c1ccc(NC(=O)NC(C)C2CCCO2)cc1 (stereo not drawn) | 3.0
CC(C)C(NC(=O)OCc1ccccc1)C(=O)OCC(=O)NCc1ccco1 (stereo not drawn) | -0.9

# Continuation.
# Results follow in this order: VCAM-1 down imaging	VCAM-1 inhibition	FPRL1 binder	VCAM-1 up imaging	FPR ligand
CCOC(=O)N1CCN(C(=O)c2ccc3c(=O)n(Cc4ccc(Cl)cc4)c(=S)[nH]c3c2)CC1
→ /	/	-1.8	/	-4.4
CCOc1ccc(NC(=O)CSc2nnc(COc3c(C)cccc3C)o2)cc1
→ i	i	-2.5	i	-5.4
CCN(CC)S(=O)(=O)c1cccc(-c2nnc(SCCOc3ccccc3C)o2)c1
→ i	i	-2.1	i	0.1
Cc1cccc2cc(CN(CC3CCCO3)C(=O)c3cnccn3)c(=O)[nH]c12 (stereo not drawn)
→ i	i	-3.8	i	-2.5
Nc1nc(C(=O)N2CCOCC2)nn1S(=O)(=O)c1ccc(Cl)cc1
→ i	i	-0.5	i	-5.5
O=C(CCCNS(=O)(=O)c1cccs1)N1CCc2ccccc2C1
→ /	/	-7.4	/	1.2
CCSc1nnc(-c2cccs2)o1
→ i	i	-11.9	i	-0.1
Cc1cccc2nc(Cn3c(=O)n(CCC(=O)NCc4ccco4)c(=O)c4ccccc43)cc(=O)n12
→ /	/	-3.2	/	8.2
COc1cccc(CNC(=O)C2CCCN(S(C)(=O)=O)C2)c1 (stereo not drawn)
→ /	/	7.0	/	-11.3
Cc1nc2ccc(S(=O)(=O)NCC(=O)N3CCC(C)CC3)cc2s1
→ /	/	-0.3	/	-2.8
CCC(C(=O)OCCN(CC)CC)c1ccccc1 (stereo not drawn)
→ i	i	-2.4	i	1.7
Cc1cccc(CN2CCN(CC(=O)O)C2=O)c1
→ /	/	-5.9	/	2.0
c1ccc(-c2nnc(SCc3nc4ccccc4[nH]3)o2)cc1
→ i	i	-0.5	i	4.8
CCCCSCCCNC(=O)Nc1cccc(OC)c1
→ /	/	-1.1	/	-0.7
CCOC(=O)c1cnc(C(C)(C)C)[nH]c1=O
→ i	i	3.0	i	-0.1
Cn1nnnc1SCC(=O)Nc1ccccc1-c1ccccc1
→ i	i	-4.0	i	7.6
CCOc1cc(C#N)c(NC(=O)c2ccnn2C)cc1OCC
→ /	/	0.8	/	-0.3
CC1=C(C(=O)Nc2ccccn2)C(c2ccc(Br)cc2)n2ncnc2N1 (stereo not drawn)
→ /	/	2.5	/	-4.4
CCOC(=O)CC(NC(=O)c1ccco1)c1ccccc1Cl (stereo not drawn)
→ /	/	-6.1	/	-18.5
CC(=O)N1CCc2cc(S(=O)(=O)CCC(=O)Nc3cccc(F)c3)ccc21
→ i	i	-0.8	i	-1.6
O=C(CC1Oc2ccccc2NC1=O)NCCCN1CCN(C2CCCCC2)CC1 (stereo not drawn)
→ /	/	2.3	/	4.7
CC(CC(=O)O)CC1=NS(=O)(=O)c2ccccc2N1 (stereo not drawn)
→ /	/	-16.9	/	-2.5
CCOc1cc(-c2nc(-c3ccc(C)nc3OCC)no2)cc(OCC)c1OCC
→ i	i	1.0	i	0.5
O=C(NCc1ccc(F)cc1)C1C2C=CC3(CN(Cc4cccnc4)C(=O)C13)O2 (stereo not drawn)
→ /	/	3.3	/	-7.7
O=c1[nH]c2ccc(S(=O)(=O)NCc3ccccn3)cc2s1
→ /	/	-6.6	/	-9.1
O=c1c2cccnc2[nH]c(=S)n1CCCN1CCN(c2ccccc2F)CC1
→ /	/	-0.8	/	6.3
CCCc1cc(C(=O)Nc2cccnc2)no1
→ /	/	-1.6	/	0.0
COc1ccc(OC)c(C2/C(=C(\O)c3ccc(OC)c(Cl)c3)C(=O)C(=O)N2CCN(C)C)c1 (stereo not drawn)
→ /	/	6.3	/	11.3
CC1(C)CC(=O)C2=C(C1)N(c1ccccc1C#N)C(N)=C(C#N)C2c1cccs1 (stereo not drawn)
→ /	/	-7.6	/	2.6
N#CCOc1nc(N2CCOCC2)nc(N2CCOCC2)n1
→ i	i	1.6	i	1.4
COc1ccc(C(=O)NCCn2cc(SCC(=O)N3CCOCC3)c3ccccc32)cc1
→ /	/	-4.1	/	0.3
COc1ccc(C(CC(=O)O)NC(=O)C2CCCCC2)cc1 (stereo not drawn)
→ /	/	4.3	/	0.4

# Compound activity from PubChem BioAssay.
